Screening data (PubChem)
HIV Env fusion: blocks HIV Env-driven cell-cell fusion. HeLa-JRFL Env/CEM21 cell fusion, luciferase. inhibition, % at 12.3 µM. 360,000 tested, 1.1% active;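 active = mean replicate inhibition score of at least 50 and every replicate individually at or above 50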;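 also: 0% = plate neutral controls and 100% = maraviroc near 300 nM; one replicate is shown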
MT1-MMP act inh: inhibitors of human MT1-MMP activation | HT1080 RFP-PRO-GFP cells, GFP/RFP ratio fluorescence, overnight; percent of plate control window, DMSO zero | GFP/RFP ratio change, % at 20 µM | 360,000 tested, 0.061% active;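 active = GFP/RFP ratio change of at least 30% with cell ATP level not reduced by more than half and red fluorescence within 50% of control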; also: strong numbers were not always called active
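Assay system – RFP-PRO-GFP reporter HT1080 cells · Compound dosing – single dose of 20 µM compound, 1% DMSO final · Incubation – overnight compound exposure at 37 °C · Measure – GFP/RFP fluorescence ratio · Benchmarks – DMSO wells and RFP-L50D-GFP cells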
MT1-MMP act inh RFP: also measured in MT1-MMP act inh; calls as there; RFP signal change, %; measured here: RFP expression control read;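 0 = vehicle wells; hits needed this value within 50% of zero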
The depositor's hits bear a star; i = inactive.

SMILES	HIV Env fusion	MT1-MMP act inh	MT1-MMP act inh RFP
Cc1cc(Br)cn2c(Cc3ccccc3)c(-c3cccc(Cl)c3)nc12	29	-2	-1
COCCCN1C(=O)C(CC(=O)NCCc2ccccn2)CC(C(=O)N2CCCCCC2)=C1C (stereo unspecified)	-11	6	5
CC=C1OC(n2cnc3c(N)ncnc32)C(O)C1O (stereo unspecified)	-11	-3	-2
COC(=O)C1=CN(c2c(C)cc(C)cc2C)C(N)=C(C#N)C1c1ccccc1 (stereo unspecified)	7	-2	1
O=C1C(Sc2ccccc2)=C[C@@]2(O)CC[C@@H](O)[C@]1(Sc1ccccc1)[C@H]2O	-11	1	1
O=S(=O)(c1ccccc1)N1CC2CC(Br)C(Br)CC21 (stereo unspecified)	9	-6	4
CCCCN1C(=O)C(CC(=O)NCc2cccc3ccccc23)CC(C(=O)N(C(C)C)C(C)C)=C1C (stereo unspecified)	2	1	-6
N#CC(=C1C=CC(=NO)C(Cl)=C1)c1ccc(Cl)cc1	-8	-8	-9
C=C(C)COc1ccc2c(c1)CCC1C2CCC2(C)C(=O)C(=NO)CC12 (stereo unspecified)	4	-6	-3
Cc1ccc(C)c(NC(=O)C(c2ccccc2)N2CCN(CC(=O)NC3CC3)CC2)c1 (stereo unspecified)	12	-6	-2
Cc1cccc(C)c1NC(=O)C1(C)CSCC(=O)N1CCCn1ccnc1 (stereo unspecified)	-5	-2	4
C[C@@H]1COc2cccc(N3CCSCC3)c2S(=O)(=O)N1	-22	1	3
O=NN(Cc1cccnc1)C(=O)NC1CCCCC1	34	1	3
COC(=O)c1sc(NC(=O)OCc2ccccc2)nc1CCNC(=O)OC(C)(C)C	2	5	4
O=[N+]([O-])c1ccc(SNc2ccccc2)c([N+](=O)[O-])c1	-1	11	-7
COc1cc(OC)c(C(=O)OCC(=O)Nc2c(C)n(C)n(-c3ccccc3)c2=O)cc1OC	-2	-2	0
Cc1cccc(C)c1NC(=O)C1c2ccccc2OCC(=O)N1C1CC1 (stereo unspecified)	-6	4	5
COC(=O)CCCC[C@@H]1O[C@H](CCc2ccccc2)Cc2[nH][nH]c(=O)c21	-20	-3	-3
Brc1ccc(Br)c2cnccc12	11	-8	-3
O=C(NCCN1CCC(n2c(=O)[nH]c3ccccc32)CC1)c1ccccc1C(F)(F)F	24	3	-5
Cc1cc2nc(-c3ccc(F)cc3)c(Cc3ccsc3)n2c(C)c1Br	10	-2	-2
O=C(Nc1ccc(F)cc1)C(c1ccccc1OC(F)(F)F)N1CCN(c2cccc(C(F)(F)F)n2)CC1 (stereo unspecified)	-3	-1	-2
CC(=O)Nc1cc(C)ns1	-22	0	-2
C[C@@H]1COc2cccc(N3CCC[C@H]3CO)c2S(=O)(=O)N1	-4	4	5
CC1(C(=O)NS(=O)(=O)c2ccccc2C(F)(F)F)CCN1C(=O)CC1CCCCC1 (stereo unspecified)	20	3	9

(list continues)
SMILES	HIV Env fusion	MT1-MMP act inh	MT1-MMP act inh RFP
COC(=O)[C@@]12C[C@@H](CC(=O)NCc3ccccc3)C(=O)N(Cc3cccc4ccccc34)C1=CCC(C)(C)C2	29	-12	-17
CCCNC(=O)c1cc2c(c(-c3cccc(-c4ccc(C#N)cc4)c3)n1)[C@@H](CCO)N(C(=O)CC)C2	15	3	4
Cc1ccc(-c2nc3c(Cl)cc(C(F)(F)F)cn3c2Cc2ccsc2)cc1	-19	-4	-3
CCCCCCN1CCN(C2CN(Cc3cn(Cc4cccc(Cl)c4)nn3)S(=O)(=O)C2)CC1 (stereo unspecified)	20	5	0
O=c1[nH][nH]c2c1C(c1cccc(C(F)(F)F)c1)OC(CCc1ccccc1)C2 (stereo unspecified)	-13	4	1
Cc1ccccc1C#CC1=CC(=O)CC(C)(C)C1	-6	-7	-3
NC(C(=O)O)C1ON=C(Cl)C1O (stereo unspecified)	2	-1	4
CCC(C)[C@H]1CNC(=O)C(=O)N1CCc1cccc(F)c1 (stereo partly specified)	-10	8	7
CC(=O)Nc1cccc2cc(S(=O)(=O)O)ccc12	-9	3	2
CC1(C)N=C(N)N=C(N)N1c1ccc(OCC(=O)Nc2ccccc2)c(Cl)c1	-1	-13	-8
CC1CCc2sc(C(=O)NCC3CCCO3)cc2C1 (stereo unspecified)	-47	-4	-2
OC(c1ccc(Cl)c(Cl)c1)c1ncc(-c2ccc(C(F)(F)F)cc2)[nH]1 (stereo unspecified)	15	4	-10
O=C(C(Br)=Cc1ccccc1)c1ccccc1	13	-3	-8
O=C1NC[C@H](c2ccccc2)N(CCCCC2CCCCC2)C1=O	24	7	4
COc1cccc(CNC(=O)COC(=O)c2cccc(S(=O)(=O)N3CCCC3)c2)c1	-9	-3	-1
CCOC(=O)[C@]12CCC=C1N(Cc1ccc3c(c1)OCO3)C(=O)[C@H](CC(=O)NCc1ccc(C)o1)C2	-8	-2	0
COc1ccc(C2=Nc3ccccc3N(C(=O)c3ccc(C)cc3)C2C(=O)Nc2c(C)cccc2C)cc1 (stereo unspecified)	-237	-12	-8
Cc1cc2c(cc1C)-c1nnnn1C(N1CCCCC1)C(=O)N2 (stereo unspecified)	-3	1	-1
CC(C)(C)n1nnnc1C1c2ccccc2C(=O)N1CCc1c[nH]c2ccccc12 (stereo unspecified)	-41	-6	4
c1ccc(OC2CCCCC2N2CCOCC2)cc1 (stereo unspecified)	-4	-1	6
COc1cccc2c1C(=O)c1c(O)c3c(c(O)c1C2=O)CC(O)(C(C)=O)CC3OC1CC(O)C(O)C(C)O1 (stereo unspecified)	-185	-17	50
O=C1NC[C@H](CCCCN2C[C@H](Cc3ccccc3)N(CC3CCCCC3)C(=O)C2=O)N(CC2CCCCC2)C1=O	-24	5	-3
Nc1[nH]c(C(=O)c2ccccc2)c(-c2ccccc2C(F)(F)F)c1C(=O)NCCc1c[nH]c2ccccc12	-26	-7	-10
CC12C=CC(=O)C=C1C(F)CC1C3CCC(O)(C(=O)CO)C3(C)CC(O)C12F (stereo unspecified)	i	-4	2
CCc1ccc(C(O)c2ncc(-c3ccc(C(F)(F)F)cc3)[nH]2)cc1 (stereo unspecified)	16	8	1

The results go on:
SMILES	HIV Env fusion	MT1-MMP act inh	MT1-MMP act inh RFP
Cc1cc(N)nc(=O)n1C1CC(O)C(CO)O1 (stereo unspecified)	-10	0	0
CC(C(=O)NC1CCCC1)n1c(C2CC2)nc2ccccc21 (stereo unspecified)	-1	-1	1
O=C1NC[C@@H](CCCCN2C[C@H](Cc3ccc(O)cc3)N(CCc3ccc(O)cc3)C(=O)C2=O)N(CCc2ccccc2)C1=O	7	-2	3
O=S1(=O)N[C@@H](Cc2ccccc2)COc2cccc(N3CCC[C@H]3CO)c21	13	7	10
CCOC(=O)C1(Cc2ccccc2)CCCN(C(=O)COc2ccccc2OC)C1 (stereo unspecified)	-23	4	0
COc1ccc(-c2c(C(=O)c3ccccc3)[nH]c(N)c2C(N)=O)cc1OC	6	2	2
O=C(COC(=O)Cc1c(F)cccc1Cl)NCc1ccc2c(c1)OCO2	4	-1	2
Cc1c(C(=O)c2ccc3c(c2)OCO3)ccc2c1OCO2	1	1	-4
CC(=O)OC1CCC2C3CCC4=C(CC(F)C(=O)C4)C3CCC12C (stereo unspecified)	1	7	-1
O=C1CC2(CCN1)CCN(Cc1ccccc1)CC2	27	1	2
COC(=O)C[C@@H]1C=C[C@@H](NC(=O)Nc2cccc(F)c2)[C@@H](CO)O1	16	2	7
Cc1cc(C)cc(Cn2cc(CN3CC(N4CCCC4)CS3(=O)=O)nn2)c1 (stereo unspecified)	1	1	7
Nc1nccc2c1ncn2C1OC(CO)C(O)C1O (stereo unspecified)	24	-14	-11
COc1ccc(C(=O)c2[nH]c(N)c(C(=O)NCCc3c[nH]c4ccccc34)c2-c2ccc(Cl)c(F)c2)cc1	-7	3	0
Cc1ccccc1NC(=O)C(C)Sc1nnc(CN2CCCC2)n1Cc1ccccc1 (stereo unspecified)	1	2	6
CCCCC[C@@H]1CCCCC[C@@H](O)C[C@@H](O)[C@@H](O)/C=C/C(=O)O1	8	6	2
COc1cccc(C(=O)N2CCC[C@H]2C(=O)N2CCC[C@H]2C(=O)NCc2ccncc2)c1	-5	3	4
O=C1c2ccccc2C(c2nnnn2C2CCCCC2)N1CCc1ccc(O)cc1 (stereo unspecified)	-15	1	2
Cc1cccc(CC2(O)C(=O)Nc3ccccc32)n1 (stereo unspecified)	-25	1	1
Cc1cc(Br)cn2c(Cc3ccsc3)c(-c3cccc(Br)c3)nc12	-1	-1	1
O=C1Nc2ccccc2-n2nnnc2C1N1CCc2ccccc2C1 (stereo unspecified)	7	1	3
Cc1ccc(C(=O)OCC(=O)c2c[nH]c3ccccc23)cc1S(=O)(=O)N1CCOCC1	-35	3	5
O=C1NC[C@@H](CCCCN2CCN(Cc3ccccc3)C(=O)C2=O)N(CC2CCCCC2)C1=O	-17	-4	3
O=C(C(=O)c1cc(Br)ccc1O)c1cc(Br)ccc1O	51	0	-30
O=c1[nH][nH]c2c1C(c1ccc(Cl)c(Cl)c1)OC(CCc1ccccc1)C2 (stereo unspecified)	20	7	2

As a short view, 13 of the compounds above.
SMILES	HIV Env fusion	MT1-MMP act inh	MT1-MMP act inh RFP
O=C(COC(=O)Cc1c(F)cccc1Cl)NCc1ccc2c(c1)OCO2	4	-1	2
Cc1c(C(=O)c2ccc3c(c2)OCO3)ccc2c1OCO2	1	1	-4
CC(=O)OC1CCC2C3CCC4=C(CC(F)C(=O)C4)C3CCC12C (stereo unspecified)	1	7	-1
O=C1CC2(CCN1)CCN(Cc1ccccc1)CC2	27	1	2
COC(=O)C[C@@H]1C=C[C@@H](NC(=O)Nc2cccc(F)c2)[C@@H](CO)O1	16	2	7
Cc1cc(C)cc(Cn2cc(CN3CC(N4CCCC4)CS3(=O)=O)nn2)c1 (stereo unspecified)	1	1	7
Nc1nccc2c1ncn2C1OC(CO)C(O)C1O (stereo unspecified)	24	-14	-11
COc1ccc(C(=O)c2[nH]c(N)c(C(=O)NCCc3c[nH]c4ccccc34)c2-c2ccc(Cl)c(F)c2)cc1	-7	3	0
Cc1ccccc1NC(=O)C(C)Sc1nnc(CN2CCCC2)n1Cc1ccccc1 (stereo unspecified)	1	2	6
CCCCC[C@@H]1CCCCC[C@@H](O)C[C@@H](O)[C@@H](O)/C=C/C(=O)O1	8	6	2
COc1cccc(C(=O)N2CCC[C@H]2C(=O)N2CCC[C@H]2C(=O)NCc2ccncc2)c1	-5	3	4
O=C1c2ccccc2C(c2nnnn2C2CCCCC2)N1CCc1ccc(O)cc1 (stereo unspecified)	-15	1	2
Cc1cccc(CC2(O)C(=O)Nc3ccccc32)n1 (stereo unspecified)	-25	1	1

Following part:
SMILES	HIV Env fusion	MT1-MMP act inh	MT1-MMP act inh RFP
CC(C)=CCC[C@H](C)CC1Cc2[nH]c(=S)[nH]c(=O)c2C(c2ccc(Cl)cc2)O1 (stereo partly specified)	-9	12	-3
CC(C)C[C@H]1COc2cccc(N3CCC[C@H]3CO)c2S(=O)(=O)N1	17	3	2
Cc1cc(C(=O)N2CCCC(C)(C(=O)NS(=O)(=O)C3CC3)C2)n(C(C)(C)C)n1 (stereo unspecified)	5	-3	4
CCCCn1nnnc1C1(C)CCC(=O)N1CCOC (stereo unspecified)	-21	3	5
O=C1NC[C@H](CCCCN2C[C@H](Cc3ccc(O)cc3)N(Cc3ccccc3)C(=O)C2=O)N(Cc2ccccc2)C1=O	-12	1	4
O=S(=O)(O)c1cc(Cl)cc(N=Nc2ccc(O)cc2O)c1O	1	62*	36*
CC1(C)Oc2c(ccc(O)c2CN2CCOCC2)C2=C1CCCC2	18	-1	-3
COc1cc(C2c3cc4c(cc3C(O)C3COC(=O)C23)OCO4)cc(OC)c1OC (stereo unspecified)	40	25	4
COc1cc(CN2C[C@@H](CO)O[C@@H](n3cnc4c(N5CCN(c6ccccc6)CC5)ncnc43)C2)cc(OC)c1OC	11	5	-4
O=C1c2ccccc2C(c2nnnn2-c2ccc3c(c2)OCCO3)N1C1CC1 (stereo unspecified)	10	1	4
CSC1SCC2C(=O)N(C)C(C(C)C)C(=O)OCC(NC(=O)c3cnc4ccccc4n3)C(=O)NC(C)C(=O)N(C)C1C(=O)N(C)C(C(C)C)C(=O)OCC(NC(=O)c1cnc3ccccc3n1)C(=O)NC(C)C(=O)N2C (stereo unspecified)	84*	-26	-15
Cn1c(=O)c2[nH]c(C3CC3)nc2n(C)c1=O	-16	-6	0
CCOc1cc(OCC)cc(C(=O)N2CCC[C@H]2C(=O)N2CCC[C@H]2C(=O)N(C)Cc2ccccc2)c1	-28	-1	0
CC(C)C[C@H]1CN(CCCC[C@H]2CNC(=O)C(=O)N2Cc2ccccc2)C(=O)C(=O)N1Cc1ccccc1	7	4	0
COc1ccc(OC)c(CN2C(=O)c3ccccc3C2c2nnnn2C2CCCC2)c1 (stereo unspecified)	4	-3	0
Cc1ccc(C(=O)N2c3ccccc3N=C(c3ccccc3)C2C(=O)NC(C)C)cc1 (stereo unspecified)	-7	3	1
COc1cc(CC(=O)Nc2c(-c3ccccc3)[nH][nH]c2=O)cc(OC)c1	13	-5	1
COC(=O)[C@@]1(Cc2ccc(F)cc2)[C@H]2c3cc(C(=O)N4CCCC4)n(CCN4CCNC4=O)c3C[C@H]2CN1C(=O)c1ccccc1	-7	-3	0
CCC(c1nnnn1-c1ccc2c(c1)OCCO2)N1CCN(Cc2c(F)cccc2Cl)CC1 (stereo unspecified)	-10	-6	-8
O=c1[nH]c(=S)[nH]c2c1[C@H](CCc1cccc(Cl)c1)O[C@H](C1CC1)C2	-8	-4	2
CC(C)n1c(=O)c2ccccc2n1S(C)(=O)=O	6	-1	5

Only part of the results is shown. The share of hits here may be higher or lower than overall.
